HSD17B inh – inhibitors of human HSD17B10 dehydrogenase. Q99714. actives 7.6% (n = 75,000). recombinant HSD17B10, NADH fluorescence kinetic; many of its hits are not listed in these tables. Potency, µM (doses to about 57.1 µM), for the others: at the highest dose activity change, negative = inhibition, actives largely listed as inhibitors; active = well fitted inhibition curve with a large enough effect; inconclusive = small, poorly fitted or top-dose-only effect; inactive = no such curve, though single readings can be large or run the other way;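 note: the protocol describes HADH2 (HSD17B10) and not the HSD17B4 of the title; nearly all actives have a fitted effect of over 70% in size; most hits overshoot -100% by far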
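Activity followed as NADH fluorescence increase (ex 360, em 450 nm) every 30 seconds for 4 min, using final 90 uM beta-hydroxybutyryl CoA and 1 mM NAD+. Recombinant His-tagged enzyme, 20 nM, pH 9.0 Tris buffer, 15 min compound preincubation.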
* hit, by the source's call; [ ] = another dose, or the depositor's remark. % is set by controls: 0 for no effect and ±100 for the full control effect; potency is the fitted concentration of half-maximal effect. This is a subset; the hit share may differ from the screen's.

Screening COc1cccc(C(c2sc3ncnn3c2O)N2CCc3ccccc3C2)c1 (centres undefined) returned HSD17B inh 32µM*.
Screening COc1ccc(C(=N/O)/C(=N/O)c2ccc(OC)cc2)cc1 returned HSD17B inh 2%.
`COc1cccc(CNC(=O)C2CCCN(S(C)(=O)=O)C2)c1` (centres undefined) gave HSD17B inh 15%.
CN(C)c1ccc(C2CC(=O)NC3=C2C(=O)CC(C)(C)C3)cc1 (centres undefined) was read as HSD17B inh -3%.
`CCSc1nnc(-c2cccs2)o1` gave HSD17B inh 32µM*.
For COc1ccc(C2(CNC(=O)c3ccc(Br)o3)CCOCC2)cc1 the results were HSD17B inh 5%.
`Cc1cccc2nc(Cn3c(=O)n(CCC(=O)NCc4ccco4)c(=O)c4ccccc43)cc(=O)n12` gave HSD17B inh -7%.
Screening O=C(CCCNS(=O)(=O)c1cccs1)N1CCc2ccccc2C1 returned HSD17B inh 5%.
`Nc1nc(C(=O)N2CCOCC2)nn1S(=O)(=O)c1ccc(Cl)cc1` gave HSD17B inh 3%.
For CC(C)c1ccccc1 the results were HSD17B inh -5%.
Screening C[C@H](O/N=C1/[C@H]2O[C@@H]2[C@@H](O)[C@H]2[C@H]1CCn1c(=O)n(-c3ccccc3)c(=O)n12)c1cn([C@H]2COC[C@H]2O)nn1 returned HSD17B inh -3%[11.4 µM].
`O=C(CC1(O)C(=O)N(CCc2ccccc2)c2ccccc21)c1ccco1` (centres undefined) gave HSD17B inh -27%.
For CCSc1nsc(SCC)c1C(N)=O the results were HSD17B inh 5%.
Screening Cc1cccc2cc(CN(CC3CCCO3)C(=O)c3cnccn3)c(=O)[nH]c12 (centres undefined) returned HSD17B inh -11%.
For CCN(CC)S(=O)(=O)c1cccc(-c2nnc(SCCOc3ccccc3C)o2)c1 the results were HSD17B inh -19%.
CCOc1ccc(NC(=O)CSc2nnc(COc3c(C)cccc3C)o2)cc1 was read as HSD17B inh 4%.
For CCCc1cc(=O)oc2cc(C)c3c(C)coc3c12 the results were HSD17B inh inconclusive.
`CCCCn1c(N)c(N(CCOC)C(=O)CSc2nc3ccc(C)cc3[nH]2)c(=O)[nH]c1=O` gave HSD17B inh -3%.
For COc1ccc(C(=O)NCCc2nnc(SCC(=O)Nc3ccccc3)n2C)cc1 the results were HSD17B inh 6%.
For COc1cccc(Cn2c(=O)c(C)nc3cnc(Nc4cccc(OC)c4)nc32)c1 the results were HSD17B inh inconclusive.
For CC(CC(=O)O)CC1=NS(=O)(=O)c2ccccc2N1 (centres undefined) the results were HSD17B inh 13%.
`CCCn1c(SCC(=O)c2ccc3c(c2)OCCO3)nnc1C(C)C` gave HSD17B inh -7%.
CC(=O)N1CCc2cc(S(=O)(=O)CCC(=O)Nc3cccc(F)c3)ccc21 was read as HSD17B inh -6%.
`CCOC(=O)CC(NC(=O)c1ccco1)c1ccccc1Cl` (centres undefined) gave HSD17B inh 1%.
For O=[n+]1cc(-c2cc3ccccc3o2)n([O-])c2c1CCCC2 the results were HSD17B inh inconclusive.
Screening O=C(CCSc1nnnn1-c1ccccc1)N1CCOCC1 returned HSD17B inh 5%.
For O=C(CC1Oc2ccccc2NC1=O)NCCCN1CCN(C2CCCCC2)CC1 (centres undefined) the results were HSD17B inh 1%.
O=C(O)[C@@H]1[C@@H]2C[C@H]([C@@H](Br)[C@H]2N2C(=O)CCC2=O)[C@@H]1C(=O)O was read as HSD17B inh -7%[11.4 µM].
CCOC(=O)C(CC)Sc1nc2c(c(=O)[nH]c(=O)n2C)n1CCc1ccccc1 (centres undefined) was read as HSD17B inh -11%.
`COC(=O)C(O)C1C(C)(C)C(OC(C)=O)C2CC3=C4CC(=O)OC(c5ccoc5)[C@]4(C)CCC3[C@@]1(C)C2=O` (some centres undefined) gave HSD17B inh 2%.
For Cn1nnnc1SCC(=O)Nc1ccccc1-c1ccccc1 the results were HSD17B inh 3%.
`CCOc1cc(C#N)c(NC(=O)c2ccnn2C)cc1OCC` gave HSD17B inh inconclusive.
N#Cc1c2n(c3c(=O)[nH]cnc13)CCCC2 was read as HSD17B inh 14%.
For CCOC(=O)C1CCCN(C(=O)c2cnn3c(C(F)F)cc(-c4ccc(C)cc4)nc23)C1 (centres undefined) the results were HSD17B inh 25µM*.
Screening CC1=C(C(=O)Nc2ccccn2)C(c2ccc(Br)cc2)n2ncnc2N1 (centres undefined) returned HSD17B inh -6%.
For O=C(O)c1ccc2nc(C(F)(F)F)[nH]c2c1 the results were HSD17B inh 1%.
Screening O=c1cc(-c2ccc(O)c(O)c2)oc2ccccc12 returned HSD17B inh 5µM*.
For COC(=O)c1ccccc1NC(=O)CSc1nnc(-c2cccc(NC(C)=O)c2)n1C the results were HSD17B inh -4%.
CCCCSCCCNC(=O)Nc1cccc(OC)c1 was read as HSD17B inh 0%.
COC(=O)C/C=C\[C@@H](C)[C@@H](/C=N\OC[C@@H]1O[C@H](c2ccccc2)C=C[C@@H]1Oc1ccc(OC)cc1)NS(=O)(=O)c1ccc(C)cc1 was read as HSD17B inh 2%[11.4 µM].
For Cc1cnc(CNc2nc(-c3ccc(C(=O)N(C)C)cc3)nc3ccccc23)cn1 the results were HSD17B inh -6%.
Screening CC1(C)CC(=O)C=C(N2CCNCC2)C1 returned HSD17B inh 1%.
`Cn1c(=O)n2n(c1=O)[C@H]1[C@H](O)[C@H]3O[C@@H]3/C(=N/OC[C@@H](O)COCc3ccco3)[C@@H]1CC2` gave HSD17B inh 2%[11.4 µM].
For COc1ccc(S(=O)(=O)N2CCCC(C(=O)NCc3ccccn3)C2)cc1Cl (centres undefined) the results were HSD17B inh -2%.
For O=c1c[n+](CC[n+]2cc(=O)o[nH]2)[nH]o1 the results were HSD17B inh 0%[11.4 µM].
`C=CC(=O)OCC(CO)(COC(=O)C=C)COC(=O)C=C` gave HSD17B inh 15%.
Cc1cc(NC(=O)c2ccccc2)ncc1NC(=O)c1ccco1 was read as HSD17B inh 2%.
Screening CCOc1ccc2[nH]c(=O)c(C(c3nnnn3CC3CCCO3)N3CCc4ccccc4C3)cc2c1 (centres undefined) returned HSD17B inh 25µM*.
`CCOC(=O)c1ccc(NC(=O)C23CCC(C)(C(=O)O2)C3(C)C)cc1` (centres undefined) gave HSD17B inh 5%.
`CCOc1ccc(-c2nc(-c3ccccc3C)no2)cc1` gave HSD17B inh -4%.
Screening O=C(COc1cccc(C(F)(F)F)c1)NCCCN1CCCC1=O returned HSD17B inh 12%.
`c1ccc(-c2nnc3sc(CN4CCc5ccccc54)cn23)cc1` gave HSD17B inh -14%.
`CCOC(=O)COc1ccc(S(=O)(=O)N2CCN(c3ccccc3F)CC2)cc1` gave HSD17B inh 4%.
`CCOc1ccc(C(=O)NCCCN(CC)CC)cc1` gave HSD17B inh 10%.
For Cc1nc2ccc(S(=O)(=O)NCC(=O)N3CCOCC3)cc2s1 the results were HSD17B inh 4%.
For CCC(=O)Nc1ccccc1-c1nnn(CC(=O)N2c3ccccc3CC2C)n1 (centres undefined) the results were HSD17B inh 2%.
For CC(C)=CCC1=C(OCC(=O)O)C(=O)c2ccccc2C1=O the results were HSD17B inh -2%[11.4 µM].
Screening COc1ccccc1N1CCN(c2nc(N)c(C#N)c(CC#N)c2C#N)CC1 returned HSD17B inh -5%.
For Cn1c(NC(=O)C2c3ccccc3Oc3ccccc32)cc(=O)n(C)c1=O the results were HSD17B inh 7%.
For COc1cccc(NC(=O)CSc2nc3c(c(-c4ccco4)c2C#N)CCCC3)c1 the results were HSD17B inh -13%.

Arranged by molecular weight (ascending): some entries from above.
`C=CC(=O)OCC(CO)(COC(=O)C=C)COC(=O)C=C` gave HSD17B inh 15%.
`c1ccc(-c2nnc3sc(CN4CCc5ccccc54)cn23)cc1` gave HSD17B inh -14%.
`CCOC(=O)c1ccc(NC(=O)C23CCC(C)(C(=O)O2)C3(C)C)cc1` (centres undefined) gave HSD17B inh 5%.

Later entries.
For CCOc1ccc(N2CC(C(=O)NCCCN3CCOCC3)CC2=O)cc1 (centres undefined) the results were HSD17B inh 13%.
For Cc1nc(N)sc1-c1csc(Nc2ccccc2)n1 the results were HSD17B inh inconclusive.
Screening CC(=O)C(Sc1nc(N2CCOCC2)nc(N2CCOCC2)n1)C(=O)Nc1ccccc1 (centres undefined) returned HSD17B inh 32µM*.
Screening CCCCCc1c(C)nc(Nc2ccc(F)cc2)[nH]c1=O returned HSD17B inh 1%.
For O=c1cnc2cnc(Nc3ccccc3)nc2n1CCc1ccccc1 the results were HSD17B inh -9%.
`CN(C)c1ccc(CNC(=O)C2CCN(S(=O)(=O)c3ccc4c(c3)CCC(=O)N4)CC2)cc1` gave HSD17B inh -6%.
CC1CN(C(=O)C(C)Sc2nc3ccccc3s2)CC(C)O1 (centres undefined) was read as HSD17B inh -16%.
`O=C(N/N=C\c1ccccc1O)c1ccccc1O` gave HSD17B inh 32µM*.
NC(=O)c1cc(-c2ccccc2)sc1NC(=O)Cc1ccc(S(=O)(=O)N2CCOCC2)s1 was read as HSD17B inh inconclusive.
Screening Cc1cc(NC(=O)c2c(F)c(F)c(F)c(F)c2F)no1 returned HSD17B inh 12%.
Cc1csc(NC(=O)CSc2nnc(-c3ccc(S(=O)(=O)N4CCCC4)cc3)o2)n1 was read as HSD17B inh 1%.
Screening O=C1CCCc2c1cc(C(=O)NCc1ccco1)c(=O)n2-c1ccc(Cl)cc1 returned HSD17B inh -2%.
`Cc1cc(O)cc(=O)o1` gave HSD17B inh -7%.
For CCCCn1c(SCc2cccnc2)nc2c1c(=O)n(C)c(=O)n2C the results were HSD17B inh 0%.
`CCCCOC(=O)C(C)Nc1n[nH]c(=O)[nH]c1=O` (centres undefined) gave HSD17B inh 9%.
CC12CCC(c3c(C(=O)Nc4nccs4)nn(-c4ccccc4)c31)C2(C)C (centres undefined) was read as HSD17B inh -6%.
For CCC(=O)Nc1ccc(NC(=O)CSc2nnnn2CC)cc1C the results were HSD17B inh 3%.
Cc1ccc(C(C)(C)C)cc1 was read as HSD17B inh 3%.
For Cn1c(=O)oc2cc(S(=O)(=O)NCCC(=O)N3CCc4ccccc4C3)ccc21 the results were HSD17B inh 8%.
Screening Cc1cc(=O)oc(C)c1C(=O)NCCCN1C(C)CCCC1C (centres undefined) returned HSD17B inh -10%.
`Cc1nnc(SCC(=O)NC(=O)NC(C)(C)C)n1N` gave HSD17B inh 8%.
For NC(=O)c1c(NC(=O)CN2CCCC2)sc2c1CCCC2 the results were HSD17B inh -1%.
`COc1ccc(OC)c(NC(=O)CSc2nnc(Cn3c(=O)sc4ccccc43)n2C)c1` gave HSD17B inh -20%.
`Cc1sc2ncn(CCC(=O)O)c(=O)c2c1C` gave HSD17B inh 1%.
For Cc1ccc(OCc2nnc(SCCN3CCOCC3)n2C)cc1 the results were HSD17B inh 0%.
Screening CCOC(=O)/C(C(N)=NCCO)=C(/O)c1ccccc1 returned HSD17B inh -1%.
For CS(=O)(=O)N(CC(=O)NC1CCCCCC1)Cc1ccccc1 the results were HSD17B inh 10%.
COC(=O)[C@@H]1C[C@@]2(O)[C@@H](O)[C@@H](O)[C@@H](O)C[C@H]2N1Cc1cc(OC)cc(OC)c1 was read as HSD17B inh -10%.
Screening CCCn1c(C2CC(=O)N(c3cc(OC)ccc3OC)C2)nc2ccccc21 (centres undefined) returned HSD17B inh -6%.
Screening CC1CCCCN1S(=O)(=O)c1ccc(C(=O)Nc2nnc(-c3ccccc3Cl)o2)cc1 (centres undefined) returned HSD17B inh -7%.

Random excerpt: 6 compounds from above
`CCCCn1c(N)c(N(CCOC)C(=O)CSc2nc3ccc(C)cc3[nH]2)c(=O)[nH]c1=O` gave HSD17B inh -3%.
Screening CCOC(=O)/C(C(N)=NCCO)=C(/O)c1ccccc1 returned HSD17B inh -1%.
`c1ccc(-c2nnc3sc(CN4CCc5ccccc54)cn23)cc1` gave HSD17B inh -14%.
`O=C(N/N=C\c1ccccc1O)c1ccccc1O` gave HSD17B inh 32µM*.
`CCOC(=O)COc1ccc(S(=O)(=O)N2CCN(c3ccccc3F)CC2)cc1` gave HSD17B inh 4%.
For Cn1c(NC(=O)C2c3ccccc3Oc3ccccc32)cc(=O)n(C)c1=O the results were HSD17B inh 7%.

(more compounds)
For CC(=O)CC(=O)[C@@]1(O)CC[C@@H]2[C@@H]3C=C(C)C4=CC(=O)CC[C@@H]4[C@H]3CC[C@]21C the results were HSD17B inh -2%[25.6 µM].
For CCOC(=O)N1CCC(NC(=O)Cn2ncn3c(cc4sc(CC)cc43)c2=O)CC1 the results were HSD17B inh -2%.
Screening CCOc1ccccc1N(C(=O)CNC(=O)c1ccco1)C(C(=O)NC(C)(C)C)c1ccncc1 (centres undefined) returned HSD17B inh -2%.
For O=C(c1ccco1)N1CCC(n2nnc3ccccc32)CC1 the results were HSD17B inh -3%.
Cc1c(C)n(CC(O)CN2CCOCC2)c2ccccc12 (centres undefined) was read as HSD17B inh 24%.
For O=C(CSc1ccccc1Cl)c1ccco1 the results were HSD17B inh -15%.
For CCN(CC)CCCNc1oc(-c2cccc(Cl)c2)nc1C#N the results were HSD17B inh 32µM*.

Compound activity as filed in PubChem BioAssay.
